Screening results: PubChem BioAssay, several laboratories
Autofluor counter = compound fluorescence in toxin protease inhibitor counterscreen; AID 624483; fluorescence intensity (no concentration beside the values); compound autofluorescence counterscreen, microsphere flow cytometry; stronger effect = higher value; 3.1% of 360,000 active;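 active means at least 3 SD above the mean of all compounds, about 16000 in these data; inconclusive means too few beads counted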;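 further: 100 nL of 1 mM stock went into each well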
ugtP null kill = growth inhibition of ugtP-null S. aureus, primary screen, RN4220 ugtP deletion, OD600. 16 h; some inactives read as strong as hits. growth inhibition, % (concentration not given with the values). 0.54% of 330,000 active;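 active means z-score under -3 and OD600 up to 0.15 on both plates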;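 further: plate controls were untreated wells for no effect and antibiotic for full effect; wells of about 80 µL received 100 nL stock; the first replicate is given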
Sa RN4220 lethal = growth inhibition of S. aureus RN4220, primary screen, OD600. 16 h. inhibition, % (concentration not given with the values). 0.33% of 330,000 active. AID 1259311, 2017;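 active means z-score of -3 or lower and OD600 up to 0.18 on both plates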;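 further: plate controls were untreated cells for no effect and reference antibiotic for full effect; stock transfer was 100 nL into about 80 µL; one replicate is shown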
BJeLR viability = MLPCN primary cell-based screen for lethality selective to Ras in HRASV12 cells | BJeLR (HRASV12) viability, CellTiter-Glo ATP luminescence, 48 h; reference of the scale not given here | inhibition, % (test concentration not listed) | 0.17% of 300,000 active;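 active means replicate mean above 50%; inconclusive means above 50% but judged a plate artefact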;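 further: 50 nL library stock added to about 25 µL; numbers are from one replicate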
PrP UTR inh = inhibition of PrP 5' UTR reporter expression; cell-based PrP 5' UTR mRNA reporter, plate reader; inhibition, % (no concentration beside the values); 0.35% of 340,000 active; AID 488862, 2010;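 active means every replicate at 50% or more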;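 further: 0 = median of the neutral control wells; tested in H4 reporter cells; numbers are from one replicate; inactives centre near -14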
Mtb hypoxia rep = PubChem AID 1159583. 0.1% of 300,000 active. M. tuberculosis hypoxia-regulated fluorescent reporter, fluorescence. fluorescence inhibition, % (concentration not given with the values);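 active means 35 to 45% if threefold the growth effect, above 45% if 1.5-fold the growth effect; inactive means the rest, general growth blockers included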;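 further: wells of about 50 µL received 100 nL stock; 0% = vehicle wells and 100% = reference inhibitor wells; whole bacteria with a GFP reporter of the hypoxia response; strong numbers were not always called active; many hits fall short of the cut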
Mtb hypoxia rep growth = further read-out of Mtb hypoxia rep, marked with its call; growth inhibition, %; measured here: M. tuberculosis growth (absorbance);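 0% = vehicle and 100% = reference antibiotic; read after six days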
The depositor's hits bear a star; ? = inconclusive; · = no result given.

SMILES | Autofluor counter | ugtP null kill | Sa RN4220 lethal | BJeLR viability | PrP UTR inh | Mtb hypoxia rep | Mtb hypoxia rep growth
Nc1nn(-c2ccccc2)c2ccc([N+](=O)[O-])cc12 | 3804 | 15.6 | 1.4 | 0.4 | -16.5 | 16.6 | 7.0
CCn1c(C)nc2cc(C(=O)NNC(=S)NC(=O)c3ccccc3)ccc21 | 3357 | 17.4 | 12.1 | · | 2.4 | 2.1 | -2.0
COc1ccc(OCCOc2ccc(S(=O)(=O)N3CCCC3)cc2[N+](=O)[O-])cc1 | 6137 | 6.7 | -0.9 | · | -9.2 | 6.3 | 3.0
COc1ccc(C(C)=NNC(=O)CNC(=O)c2ccco2)cc1 | · | 10.7 | -3.2 | · | · | 3.5 | 0.2
COc1cccc(C(=O)Nc2c3c(nn2-c2cccc(C)c2C)CS(=O)C3)c1OC (stereo not given) | 4196 | 1.5 | 2.1 | 13.0 | -9.2 | · | ·
CSc1nc2nccc(-c3ccc(-c4ccccc4)cc3)n2n1 | 2728 | -4.2 | -4.9 | -3.9 | -17.1 | 19.9 | 7.1
COc1ccc(-c2nnc3n2-c2ccccc2SC3)cc1OC | 3314 | -5.8 | 5.7 | -1.5 | -16.0 | 5.3 | 3.7
CCS(=O)(=O)C1=NSC2=NC(=O)/C(=C\c3ccc(OS(=O)(=O)c4ccccc4)c(OC)c3)C(=N)N21 | 6067 | 1.7 | 4.8 | 0.6 | -29.1 | 2.5 | 2.4
COc1ccc(/C=C2\SC(=S)N(CCC(=O)NCCCN3CCOCC3)C2=O)cc1 | 4478 | 5.6 | 5.5 | -6.9 | -12.4 | -0.3 | 4.8
O=C(CCC(=O)c1cccs1)NNC(=O)c1ccccc1Cl | · | 4.2 | 5.0 | · | · | 13.9 | 7.6
CC1=C(C(=O)Nc2ccccc2C(=O)NCCCN2CCN(C)CC2)SCCO1 | 4169 | 5.5 | 0.6 | 5.1 | -2.7 | 2.8 | 2.0
COc1ccc(C(=O)N2CC3(CC(c4ccc(Cl)cc4)=NO3)C[C@H]2C(=O)NCC(N)=O)cc1 (stereo not given in full) | 3773 | · | · | -8.3 | -30.3 | · | ·
O=C(Nc1ccccc1)C1=CC(C2CC2)CC(OCCCCO)O1 (stereo not given) | · | -0.9 | 4.9 | · | · | 14.9 | 4.0
O=C(CCc1n[nH]c(=O)[nH]c1=O)N1CCOCC1 | 6245 | 5.7 | 5.5 | -12.7 | -13.3 | 3.9 | 6.6
CCOc1ccc2c(c1)C(=NNC(=O)c1ccncc1)c1cc(OCC)ccc1-2 | 1945 | -10.4 | 27.4 | 14.9 | 6.1 | 9.1 | -5.1
Fc1ccccc1CSc1nnc(Cn2cnc3ccccc32)n1-c1ccccc1 | 7815 | -10.7 | 3.6 | 13.3 | -12.1 | -0.6 | 2.4
CCCc1nc2ccccc2c(=O)n1-c1cccc(OC)c1 | 4135 | 4.3 | -9.1 | -6.1 | -16.5 | · | ·
CCOc1ccc(OC(=O)c2cccc(S(=O)(=O)N3CCN(C)CC3)c2)cc1 | ? | 6.5 | 1.9 | -3.8 | -13.4 | -6.4 | -2.0
CC(=O)OCC(=O)C1CCC2C3CC=C4CC(O)CCC4(C)C3CCC12C (stereo not given) | 4513 | 8.8 | -0.3 | · | -4.6 | 4.9 | 5.9
CCOCCCN(C(=O)c1snc(C(N)=O)c1N)C(C(=O)NC(C)(C)C)c1ccc(Cl)cc1 (stereo not given) | 2907 | -2.5 | -6.6 | -4.2 | -61.6 | -7.1 | -17.4
CCCCCCCCCCCCC/C=C/[C@@H](O)[C@@H](N)CO | 5937 | · | · | -10.2 | -26.2 | · | ·
COc1ccc2[nH]c(C(=O)Nc3ccc(C)c(F)c3)cc2c1 | 5801 | -7.7 | 1.1 | -6.1 | -38.5 | 6.9 | 19.7
CCN(C(=O)c1ccc(NC(C)=O)cc1)c1ccccc1C | 3168 | -1.9 | 4.2 | 0.3 | -6.1 | 7.1 | 4.2
CN(CC(=O)Nc1cccc(Cl)c1)S(=O)(=O)c1ccc2c(c1)n(C)c(=O)c(=O)n2C | 4670 | -0.6 | 0.8 | 0.0 | 0.7 | -6.6 | -2.2
CCN(CC)S(=O)(=O)c1ccc2oc(Nc3ccc4c(c3)OCCO4)nc2c1 | 2653 | -3.9 | -1.5 | 1.8 | -21.1 | · | ·
Next part:
SMILES | Autofluor counter | ugtP null kill | Sa RN4220 lethal | BJeLR viability | PrP UTR inh | Mtb hypoxia rep | Mtb hypoxia rep growth
Cc1ccc(OCCNC(=O)CNC(=O)c2ccc(C)cc2)cc1 | 6335 | 2.5 | 1.5 | -19.0 | -11.0 | -2.4 | 14.2
CCOc1ccc(N(CC(=O)NCc2ccc(OC)cc2)S(=O)(=O)c2c(C)noc2C)cc1 | · | -0.8 | 1.6 | -8.4 | -18.5 | 4.3 | -2.8
CCn1ccnc1CN(C)C(=O)CCc1nnc(CCC2CCCCC2)o1 | 4853 | 1.5 | 5.5 | -0.4 | -28.2 | 2.2 | 23.5
Cc1cc(Cl)ccc1OCC(=O)OCC(=O)c1c(N)n(C)c(=O)n(C)c1=O | ? | -2.8 | 2.8 | · | -17.8 | -8.8 | -12.5
CCN(c1ccccc1)S(=O)(=O)c1ccc(C(=O)NCCc2ccc(S(N)(=O)=O)cc2)cc1 | 5639 | 0.5 | 4.9 | -2.8 | -1.2 | -4.6 | 4.1
CN=C(Nc1cccnc1)c1ccccc1 | 3658 | -0.5 | -0.4 | 2.2 | -34.9 | 4.9 | 6.1
CCCC(=O)Nc1nnc(SCC(=O)NC2CC2)s1 | 6212 | 11.9 | -0.8 | -3.7 | -4.7 | 0.7 | 11.0
CC(=O)Nc1ccc(CN2CCCN(C)CC2)cc1 | 3581 | 4.7 | 3.7 | -4.3 | -28.1 | 4.0 | 11.4
CCOc1cccc(C=NNC(=O)CC2C(=O)NN=C2C)c1O (stereo not given) | · | 3.5 | 2.5 | · | · | 7.7 | -2.3

Whole records as entered above. Values in the order: Autofluor counter, ugtP null kill, Sa RN4220 lethal, BJeLR viability, PrP UTR inh, Mtb hypoxia rep, Mtb hypoxia rep growth
Record of `Cc1ccc(OCCNC(=O)CNC(=O)c2ccc(C)cc2)cc1` : 6335, 2.5, 1.5, -19.0, -11.0, -2.4, 14.2
Record of `CCCC(=O)Nc1nnc(SCC(=O)NC2CC2)s1` : 6212, 11.9, -0.8, -3.7, -4.7, 0.7, 11.0
Record of `CN=C(Nc1cccnc1)c1ccccc1` : 3658, -0.5, -0.4, 2.2, -34.9, 4.9, 6.1
Record of `CC(=O)Nc1ccc(CN2CCCN(C)CC2)cc1` : 3581, 4.7, 3.7, -4.3, -28.1, 4.0, 11.4
Record of `CCN(c1ccccc1)S(=O)(=O)c1ccc(C(=O)NCCc2ccc(S(N)(=O)=O)cc2)cc1` : 5639, 0.5, 4.9, -2.8, -1.2, -4.6, 4.1

Some entries already given with just Mtb hypoxia rep growth and PrP UTR inh:
| mol | Mtb hypoxia rep growth | PrP UTR inh |
| --- | --- | --- |
| CCOc1ccc(N(CC(=O)NCc2ccc(OC)cc2)S(=O)(=O)c2c(C)noc2C)cc1 | -2.8 | -18.5 |
| CCn1ccnc1CN(C)C(=O)CCc1nnc(CCC2CCCCC2)o1 | 23.5 | -28.2 |
| Cc1cc(Cl)ccc1OCC(=O)OCC(=O)c1c(N)n(C)c(=O)n(C)c1=O | -12.5 | -17.8 |
| CCN(c1ccccc1)S(=O)(=O)c1ccc(C(=O)NCCc2ccc(S(N)(=O)=O)cc2)cc1 | 4.1 | -1.2 |
| CN=C(Nc1cccnc1)c1ccccc1 | 6.1 | -34.9 |
| CCCC(=O)Nc1nnc(SCC(=O)NC2CC2)s1 | 11.0 | -4.7 |
| CC(=O)Nc1ccc(CN2CCCN(C)CC2)cc1 | 11.4 | -28.1 |
